# HNF4A DNA FP: change in binding of human HNF4 alpha to DNA; P41235; HNF4a-FITC DNA binding, fluorescence polarization, 1 h; activity change, % at 10 µM; 360,000 tested, 0.3% active; AID 1224865; in the data active = activity change above about 30%, passing the limit was not always enough;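 note: controls were the assay level and a saturating level of protein; the project sought stronger binding though the title names inhibitors; some compounds called inactive have numbers as strong as hits; positive values seem to mean higher polarization but the record does not say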
# Target sequence (P41235 whole entry, looked up): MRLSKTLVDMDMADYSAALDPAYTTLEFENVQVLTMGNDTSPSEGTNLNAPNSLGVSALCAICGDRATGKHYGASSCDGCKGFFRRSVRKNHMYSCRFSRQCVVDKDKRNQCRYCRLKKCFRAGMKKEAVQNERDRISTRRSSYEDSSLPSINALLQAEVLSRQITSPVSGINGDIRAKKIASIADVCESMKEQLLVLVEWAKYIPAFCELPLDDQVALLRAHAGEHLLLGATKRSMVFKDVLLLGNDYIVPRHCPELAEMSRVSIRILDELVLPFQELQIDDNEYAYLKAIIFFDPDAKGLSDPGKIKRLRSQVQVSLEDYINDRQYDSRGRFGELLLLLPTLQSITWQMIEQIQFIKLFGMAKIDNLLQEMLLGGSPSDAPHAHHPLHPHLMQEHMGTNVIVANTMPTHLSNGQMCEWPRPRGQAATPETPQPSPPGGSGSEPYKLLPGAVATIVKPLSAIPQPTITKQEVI
# Vif A3G: HIV-1 Vif–A3G interaction blockers – biochemical, TR-FRET, GST-Vif 1-94, biotin-A3G peptide, dose response retest, primary screen (AID 1117319); TR-FRET GST-Vif / biotin-A3G peptide binding; higher % means a stronger effect; test concentration not given here; strong numbers were not always called active; inhibition, %; hits with a dose series show IC50 in µM; 260,000 tested, 0.57% active;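 active = above the screen mean plus three standard deviations and confirmed in dose response; inconclusive = results disagree or hit not tested in dose response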;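 note: Vif residues 1-94 fused to GST binding biotinylated APOBEC3G peptide 110-148; 0% = full assay without inhibitor and 100% = GST in place of GST-Vif; retest series ran down from 100 µM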
# Calb FLC: affects C. albicans growth with fluconazole; C. albicans CaCi-2 (fluconazole-resistant clinical isolate) + fluconazole, Alamar Blue growth, 48 h; 300,000 tested, 0.57% active; growth inhibition, % (test concentration not listed);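 active = most replicates above 75%; inconclusive = exactly half above 75%; inactive = most below 75%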;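 note: all wells also contain fluconazole at 8 µg/ml as a sub-toxic cotreatment; 0% = median of DMSO wells and 100% = median of geldanamycin control wells; wells of about 8 µL received 7.5 nL stock; the first replicate is given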
# RanGTP-Imp inh: inhibitors of RanGTP-importin-beta interaction, primary screen, biochemical, FRET, CFP-Ran, YFP-importin-beta, homogeneous; cell-free CFP-Ran/YFP-importin-beta FRET ratio; inhibition, % (test concentration not listed); 300,000 tested, 1.1% active; AID 2216;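 active = most replicates above 15%; inconclusive = exactly half above 15%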;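 note: 0% = DMSO wells and 100% = Ran loaded with GDP instead of GTP; wells of about 40 µL received 100 nL stock; the first replicate is given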
# ALR inh: blocks human ALR sulfhydryl oxidase activity | purified ALR, DTT oxidation, H2O2 HRP-luminol luminescence | inhibition, % (test concentration not listed) | 290,000 tested, 3.8% active | AID 485317;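 active = mean and each replicate at 75% or more; inconclusive = only one of the two met; inactive = neither met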;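 note: stock transfer was 7.5 nL into about 7.5 µL; 0% = neutral wells and 100% = wells with inactivated enzyme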
# Target sequence (P55789 whole entry, looked up): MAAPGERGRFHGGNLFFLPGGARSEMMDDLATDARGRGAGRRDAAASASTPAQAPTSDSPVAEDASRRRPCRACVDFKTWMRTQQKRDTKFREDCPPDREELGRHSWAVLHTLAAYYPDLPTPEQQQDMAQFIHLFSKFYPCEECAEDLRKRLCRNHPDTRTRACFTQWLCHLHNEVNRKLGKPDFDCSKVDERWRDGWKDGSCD
# LANA-H2B inh: blocks KSHV LANA binding to histone H2A/H2B. Q9QR71. cell-free LANA-H2A/H2B peptide, fluorescence polarization. inhibition, % (no concentration beside the values). 320,000 tested, 0.6% active; in the data active = inhibition mostly above about 10%, no sharp cut-off; inactive = mostly below about 6.7%;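 note: stock transfer was 7.5 nL into about 10 µL; 0% = median of vehicle wells and 100% = median of positive control wells; one replicate is shown; the record names a cut of 25% in any replicate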
# B2AR ag: activates human beta-2 adrenergic receptor causing internalization; Am2.2-beta2AR cells, FAP receptor internalization, flow cytometry; reference of the scale not given here; response, % (concentration not given with the values); 340,000 tested, 0.43% active; AID 504454;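 active = response above a set limit, near 3 SD of response in nonfluorescent compounds, cut at about 42% in these data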;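 note: stock transfer was 100 nL into about 11 µL; a reference agonist was the positive control; negative values mostly stem from fluorescent compounds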
# Target sequence (P07550 whole entry, looked up): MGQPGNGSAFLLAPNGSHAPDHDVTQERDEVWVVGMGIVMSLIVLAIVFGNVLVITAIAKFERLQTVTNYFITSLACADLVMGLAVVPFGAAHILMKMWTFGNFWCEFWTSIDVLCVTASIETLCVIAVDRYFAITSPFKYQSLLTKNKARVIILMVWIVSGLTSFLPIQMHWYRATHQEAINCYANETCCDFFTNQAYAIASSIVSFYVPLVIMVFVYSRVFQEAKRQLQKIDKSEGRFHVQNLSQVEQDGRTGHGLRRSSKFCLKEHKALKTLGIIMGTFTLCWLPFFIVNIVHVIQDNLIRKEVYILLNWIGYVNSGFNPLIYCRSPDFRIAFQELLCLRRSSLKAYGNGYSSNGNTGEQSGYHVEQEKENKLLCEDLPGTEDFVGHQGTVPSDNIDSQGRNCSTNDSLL
# Active calls of the source: *; i = inactive; ? = inconclusive; . = not tested or not shown. Rows are unselected. Share with any hit: about 6.3%.
SMILES,HNF4A DNA FP,Vif A3G,Calb FLC,RanGTP-Imp inh,ALR inh,LANA-H2B inh,B2AR ag
CS(=O)(=O)Nc1ccc(C2=NN(C(=O)c3ccco3)C(c3ccccc3F)C2)cc1 (centres undefined),0.8,0%,4,-5.9,-6,-15,-1
CCC(=O)N1CCc2cc(Br)cc(S(=O)(=O)CCC(=O)N(CC)CC)c21,-0.2,-2%,-1,?,2,6.9,-7
CCOC(=O)c1c(C)c(C(=O)NCc2ccccn2)c(C)n1C,-0.2,22%,24,-4.7,2,1.2,0
COc1cc(CN(C)C(=O)C(=O)c2c[nH]c3ccccc23)ccc1O,3.4,-11%,.,.,.,.,7
Cc1nnsc1S(=O)c1ccc(Cl)c(Cl)c1 (centres undefined),0.8,-4%,10,5.9,.,2.6,-10
O=C(COC(=O)C12CC3CC(CC(Br)(C3)C1)C2)Nc1ccc2[nH]c(=O)[nH]c2c1,0.1,>100µM*,15,1.9,0,0.2,-3
O=C(Nc1cc(C(F)(F)F)ccc1N1CCOCC1)c1n[nH]c(=O)c2ccccc12,3.1,-5%,0,-0.5,.,3.6,2
CN(CC(=O)Nc1ccc(Cl)cc1)C1=NS(=O)(=O)c2ccccc21,-0.5,-16%,.,.,-2,27*,-2
CCC(=O)Nc1nc2ccccc2n1CCN1CCOCC1,-0.4,6%,-2,0.4,-4,i,-5
CC(C)(C)C(=O)Cn1c(NCCCO)nc2ccccc21,3.5,-5%,-17,4.3,51,0.9,1
O=C(CNS(=O)(=O)c1ccccc1)OCC(=O)c1ccc(Br)cc1,-0.7,.,-6,0.7,-2,-0.9,-2
C=C(NC(=O)C(=C)NC(=O)c1csc(C2=NC3c4csc(n4)C4NC(=O)c5csc(n5)C(C(C)(O)C(C)O)NC(=O)C5CSC(=N5)/C(=C/C)NC(=O)C(C(C)O)NC(=O)c5csc(n5)C3(CC2)NC(=O)C(C)NC(=O)C(=C)NC(=O)C(=C)NC(=O)C(C(C)C)NC2C=Cc3c(C(C)O)cc(nc3C2O)C(=O)OC4C)n1)C(N)=O (centres undefined),-2.7,9%,.,.,.,.,11
Cc1ccc(-c2noc(C3CCCN(C(=O)c4cccc(F)c4)C3)n2)cc1 (centres undefined),-3.0,.,4,0.4,-18,16*,-3
C=CCn1c(SCC(=O)c2c(N)n(C)c(=O)n(C)c2=O)nnc1-c1ccoc1C,0.7,5%,.,.,-13,0.0,-3
C=CCN1C=C(C(C)=O)C(=O)CC1,0.8,-9%,.,.,.,.,3
O=C(O)CC12CC3CC(C1)CC(n1ncc(NCc4ccc(F)cc4)c(Cl)c1=O)(C3)C2,-0.4,.,-10,-0.9,0,0.7,11
COc1cc(OC)cc(C(=O)Nc2ccc(N3CCN(C(=O)c4cccs4)CC3)cc2)c1,7.3,3%,2,2.1,-1,-2.0,3
CC(C)CC(=O)Nc1cccc(-c2nc3ncccc3o2)c1,0.6,-12%,-4,3.4,-3,-0.3,3
CCOc1cc(/C=N/NC(=O)C(=O)NCc2ccc3c(c2)OCO3)ccc1OCC(=O)N1CCOCC1,-2.1,.,-8,-1.9,-15,1.7,-7
COCc1cc(C)nc2sc3c(=O)n(-c4cccc5ccccc45)nnc3c12,0.7,10%,0,-1.9,-19,-1.6,4
CC(C)C(NS(=O)(=O)c1cccc2nsnc12)C(=O)NC1CCCCC1 (centres undefined),-3.0,.,5,5.2,4,2.5,1
COc1cc2[nH]c3c(N4CCN(c5ccc(Cl)cc5)CC4)ncnc3c2cc1OC,3.6,-6%,0,7.6,31,3.5,12
CC1Sc2ccc(S(=O)(=O)N(C)Cc3ccccc3)cc2NC1=O (centres undefined),3.3,0%,-21,3.3,0,2.9,4
Cc1cc(=O)oc2c3c(cc(OCC(=O)N[C@@H](C)C(=O)O)c12)OC(C)(C)CC3,5.3,-2%,-5,-0.6,-3,1.5,0
CCOc1ccc(NS(=O)(=O)c2ccc(N)cc2)cc1,0.1,?,-4,0.5,2,1.3,6
Cc1ccccc1NC(=O)c1ccc(OCc2c(C)noc2C)cc1,1.1,4%,.,.,-4,4.1,-6
CC(=O)N1CCN(C(=O)C2(NC(=O)Nc3ccc(C)cc3)CCCCC2)CC1,-1.3,.,1,4.7,-2,2.4,-3
C=CCN1CCC(=O)C(C(=O)OCC)=C1C(=O)OCC,-5.2,-6%,.,.,.,.,10
Cc1cc[n+](CC(=O)c2cccc([N+](=O)[O-])c2)c2ccccc12,-1.6,2%,-4,4.0,48,-4.5,-6
Cc1cccc(C(=O)NCC(=O)OC(C)C(=O)Nc2ccc(Cl)cn2)c1 (centres undefined),1.1,4%,7,2.1,3,5.1,3
COC(=O)c1c(C)[nH]c(C(=O)C(C)OC(=O)c2cc(C)oc2C)c1C (centres undefined),1.6,.,.,.,.,-1.8,-4
COC(=O)c1[nH]c(C)c(/C(O)=C2\C(=O)C(=O)N(CCN(C)C)C2c2cc(OC)ccc2OC)c1C (centres undefined),11,1%,11,2.2,-5,4.6,3
CC(C)C(OC(=O)C1=Cc2ccccc2OC1)C(=O)NC1CCCC1 (centres undefined),-3.0,0%,0,-1.2,-2,2.8,-10
CCn1c(CSc2n[nH]c(N)n2)nc2cc(C(=O)O)ccc21,-3.1,19%,29,-4.7,-55,-4.0,-2
COC(=O)c1ccc(COc2ccc(/C=N/Nc3nc(C)cc(=O)[nH]3)cc2)cc1,-4.1,.,27,1.8,8,0.8,19
CCOC(=O)c1nn(-c2ccc(C)cc2)cc1C(=O)c1ccccc1,1.4,-4%,3,-3.5,0,2.7,5
Cc1cc(Cl)ccc1OCC(=O)Nc1ccccc1CO,-1.9,-2%,0,1.4,-1,-2.2,9
CCOc1c2ccc(C(=O)NCc3ccc(OC(F)(F)F)cc3)cc2nn1C,2.2,14%,7,1.0,0,-0.9,-3
Cn1c(=O)oc2cc(S(=O)(=O)CCC(=O)N3CCN(c4ccccc4F)CC3)ccc21,-0.8,.,11,3.2,2,5.5,-4
C=CCSC1=C(C#N)C(c2ccc(C(C)C)cc2)CC(=O)N1 (centres undefined),0.1,1%,-7,5.8,7,0.0,10
CCOc1cc2[nH]c(=O)n(CCCCC(=O)NC3CCCCCC3)c(=O)c2cc1OCC,2.7,5%,4,-1.3,-4,1.8,-5
O=C(O)C1Cc2ccccc2CN1S(=O)(=O)c1ccc(Cl)cc1 (centres undefined),1.7,5%,29,-1.0,0,-1.5,4
CCCCCCn1c(CN2CCCCC2)nc2c1c(=O)n(C)c(=O)n2C,-4.4,.,-4,-0.9,-3,-3.2,-7
CCN(CC)C(=O)Cn1c(=O)n(Cc2ccc(F)cc2)c(=O)c2sccc21,1.8,-12%,-16,0.9,-5,0.6,-4
CCOC(=O)C1CCN(c2c(Nc3ccc(C)c(C)c3)c(=O)c2=O)CC1,-4.0,3%,8,0.6,.,-2.0,4
COc1ccc(O)c(CN2CCN(CCCc3ccccc3)C(CCO)C2)c1 (centres undefined),1.3,.,0,1.0,0,2.8,12
Cc1cccn2c(=O)c3cc(C(=O)NC4CCCCC4)c(=N)n(Cc4ccccc4)c3nc12,11,.,-3,186*,.,1.9,32
CCCCOCCCNC(=O)COc1ccccc1,-0.5,-2%,-9,0.9,-6,-8.5,1
O=C(N/N=C/c1ccc2c(c1)OCO2)c1cccnc1,-0.6,.,2,-2.6,-2,7.6,8
CCOC(=O)N1CCC(N2C(=O)c3ccc(C(=O)Nc4ccc(OC)c(OC)c4)cc3C2=O)CC1,2.3,.,28,0.1,-1,8.7,8
COc1ccc(-c2cc(=O)oc3c(C)c(OCC(=O)NCCCn4ccnc4)ccc23)cc1,-0.5,.,19,-0.3,-10,-4.6,-13
CN1CCN(C(=O)c2ccc3c(c2)N(Cc2ccccc2)CCS3)CC1,-2.5,.,-3,-0.7,98*,3.7,8
O=C(COC(=O)CNC(=O)C12CC3CC(CC(C3)C1)C2)Nc1ccccc1,-0.6,0%,-5,-1.1,-7,-0.3,-1
N#CC1=C(N)Oc2[nH]c(=S)[nH]c(=O)c2C12C(=O)Nc1ccccc12 (centres undefined),-3.6,5%,-10,.,29,-6.7,3
O=C1CC(N2CCN(c3cccc(C(F)(F)F)c3)CC2)C(=O)N1c1ccccc1F (centres undefined),0.5,-1%,3,0.4,-7,5.2,6
COC(=O)CSC(C)C(=O)Nc1nnc(C(C)C)s1 (centres undefined),4.6,-2%,-30,5.9,-2,1.4,1
Cc1cc(C)n(C(=O)CNC(=O)C(c2ccccc2)c2ccccc2)n1,1.3,1%,0,5.3,2,2.3,-10
Cc1cc([N+](=O)[O-])nn1CC(=O)N1CCc2ccccc2C1,3.5,-2%,-16,1.8,-6,4.5,-7
COc1cccc(N(CC(=O)NC2CCCCC2)C(=O)Cn2nnc(-c3ccc(C)o3)n2)c1,3.8,-1%,-1,4.3,.,.,-4
CN(C)S(=O)(=O)c1cccc(NC(=O)COC(=O)c2cc(=O)c3ccccc3o2)c1,1.9,2%,12,0.7,-3,0.7,-6

# Three of the compounds above, with two lines to a compound.
# Second line of a record – HNF4A DNA FP, Vif A3G, Calb FLC, RanGTP-Imp inh, ALR inh, LANA-H2B inh, B2AR ag
> O=C(COC(=O)CNC(=O)C12CC3CC(CC(C3)C1)C2)Nc1ccccc1
    -0.6, 0%, -5, -1.1, -7, -0.3, -1
> Cc1cc(C)n(C(=O)CNC(=O)C(c2ccccc2)c2ccccc2)n1
    1.3, 1%, 0, 5.3, 2, 2.3, -10
> Cc1cc([N+](=O)[O-])nn1CC(=O)N1CCc2ccccc2C1
    3.5, -2%, -16, 1.8, -6, 4.5, -7

# (more compounds)
SMILES,HNF4A DNA FP,Vif A3G,Calb FLC,RanGTP-Imp inh,ALR inh,LANA-H2B inh,B2AR ag
CS(=O)(=O)N(CC(=O)N1CCC(C(N)=O)CC1)c1cc(C(F)(F)F)ccc1Cl,1.4,.,17,0.2,-3,-0.9,1
Cc1cc2c(=O)n(C)c(SCC(=O)Nc3cccc(O)c3)nc2s1,2.0,.,2,-1.0,99*,-4.4,2
CCCC(C(=O)OCCN(CC)CC)(c1ccccc1)c1ccccc1,-5.3,.,.,?,-2,1.1,-4
CC(=O)c1cc(F)c(N2CCN(C(=O)COc3ccc(F)cc3)CC2)cc1C,-0.6,1%,1,-1.1,5,-3.3,12
NCC(O)(c1ccc(Cl)cc1)c1ccc(Cl)cc1,2.2,3%,2,2.3,-3,5.2,7
Cn1c2ccccc2c(=O)c2c(=O)n(-c3ccccc3)c(-c3ccc(C(C)(C)C)cc3)nc21,3.6,.,18,2.7,-5,-0.7,0
CCOC(=O)CSc1nc2ccc(C)cc2[nH]1,-0.5,-3%,-5,1.2,-4,3.9,2
CC(CN1C(C)CCCC1C)OC(=O)c1ccccc1F (centres undefined),-1.6,-8%,-13,-1.1,.,-1.9,-1
Cc1ccc(C(=O)NC2CCN(CC(=O)Nc3c(C)cc(C)cc3C)CC2)cc1,-4.9,.,-10,1.4,7,1.8,6

# 4 entries already listed, ordered by number of heavy atoms, largest number first:
SMILES,HNF4A DNA FP,Vif A3G,Calb FLC,RanGTP-Imp inh,ALR inh,LANA-H2B inh,B2AR ag
Cn1c2ccccc2c(=O)c2c(=O)n(-c3ccccc3)c(-c3ccc(C(C)(C)C)cc3)nc21,3.6,.,18,2.7,-5,-0.7,0
Cc1ccc(C(=O)NC2CCN(CC(=O)Nc3c(C)cc(C)cc3C)CC2)cc1,-4.9,.,-10,1.4,7,1.8,6
CS(=O)(=O)N(CC(=O)N1CCC(C(N)=O)CC1)c1cc(C(F)(F)F)ccc1Cl,1.4,.,17,0.2,-3,-0.9,1
CCCC(C(=O)OCCN(CC)CC)(c1ccccc1)c1ccccc1,-5.3,.,.,?,-2,1.1,-4
